Bioassay records: PubChem BioAssay, Vanderbilt University
GIRK2 activ = activators of human GIRK2 potassium channels; HEK293-GIRK2 thallium flux, Thallos fluorescence; calls only for hits at 25 µM; actives 0.05% (n = 63,000);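 active = among the strongest 0.2% of first-round signals and kept after retests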;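 also: first round at about 10 µM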
Target sequence (P48051 whole entry, looked up): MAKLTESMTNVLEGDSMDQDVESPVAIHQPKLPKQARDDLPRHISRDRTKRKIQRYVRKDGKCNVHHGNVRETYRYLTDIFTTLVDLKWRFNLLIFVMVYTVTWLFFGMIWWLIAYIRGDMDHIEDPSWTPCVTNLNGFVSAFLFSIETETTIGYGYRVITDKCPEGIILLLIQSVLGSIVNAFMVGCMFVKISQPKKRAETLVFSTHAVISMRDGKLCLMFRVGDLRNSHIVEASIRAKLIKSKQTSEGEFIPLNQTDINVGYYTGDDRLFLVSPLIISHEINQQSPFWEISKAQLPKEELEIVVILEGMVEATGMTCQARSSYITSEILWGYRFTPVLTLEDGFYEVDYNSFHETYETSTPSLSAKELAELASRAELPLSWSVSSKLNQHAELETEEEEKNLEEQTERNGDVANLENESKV
Calls only; i = inactive. Some of the compounds tested (hit frequency here may not be typical).

GIRK2 activ	Compound
i	CCN(CC)CCN1C(=O)c2oc3ccccc3c(=O)c2C1c1ccc(C)cc1 (centres undefined)
i	CC(=O)c1cccc(S(=O)(=O)N2CCCC(c3nnc(-c4ccccc4F)s3)C2)c1 (centres undefined)
i	Cn1cnnc1SCc1cc(=O)c(OCC(=O)Nc2ccc(Cl)cc2)co1
i	O=C(CCc1csc(NC(=O)Nc2cccc(Cl)c2)n1)NCc1ccccn1
i	CC(=O)Nc1ccc(SCCCC(=O)Nc2ccc(S(N)(=O)=O)cc2)nn1
i	Cc1ccc(S(=O)(=O)N(C)c2c(C)ccc(S(=O)(=O)NCCCC(=O)O)c2C)cc1
i	Cc1ccc(-c2csc3c(=O)n(CC(=O)Nc4cc(F)ccc4F)cnc23)cc1
i	Cc1ccc(-c2nnc(NC(=O)c3ccc4nsnc4c3)o2)cc1
i	Cc1ccc(NC(=O)CSc2ncc(S(=O)(=O)c3ccc(N4CCCC4)cc3)c(=O)[nH]2)cc1
i	CCCCCCCC/C=C\CCCCCC(=O)OC

Laid out differently: results already given
Cc1ccc(S(=O)(=O)N(C)c2c(C)ccc(S(=O)(=O)NCCCC(=O)O)c2C)cc1
  GIRK2 activ = i

Cc1ccc(-c2csc3c(=O)n(CC(=O)Nc4cc(F)ccc4F)cnc23)cc1
  GIRK2 activ = i

New compounds follow
GIRK2 activ	Compound
i	CN(C)CCN1C(=O)C(O)=C(C(=O)c2cc3ccccc3o2)C1c1cccc(F)c1 (centres undefined)
i	O=C(Oc1ccc2c(c1)O/C(=C\c1ccncc1)C2=O)c1ccccc1Br
i	COc1cccc(N2C(=O)N(c3ccc(Cl)cc3)C3CS(=O)(=O)CC32)c1 (centres undefined)
i	COc1ccc(OC)c(S(=O)(=O)Nc2ccc3c(c2)N(S(=O)(=O)c2cccs2)CCC3)c1
i	COCCCn1c(=O)c2ccccc2n(Cc2nc(-c3ccc(OC)c(OC)c3)no2)c1=O
i	Cc1cc(NC(=O)C2CCN(C(=O)c3ccc([N+](=O)[O-])o3)CC2)no1
i	COc1cc(-c2noc(-c3cn[nH]c3-c3ccccc3)n2)cc(OC)c1OC
i	COCCNC(=O)c1nnn(-c2ccc(NC(=O)/C=C/c3ccccc3)cc2)n1
i	COc1ccc(N2CC(C)Cn3c2nc2c3c(=O)n(Cc3ccccc3)c(=O)n2C)c(OC)c1 (centres undefined)
i	CC(=O)N1CCN(C(=O)C(NC(=O)c2cccc(Cl)c2)S(=O)(=O)c2ccc(C)cc2)CC1 (centres undefined)
i	O=S(=O)(NCCC(O)c1ccc2c(c1)OCO2)C1CC1 (centres undefined)
i	O=C(c1ccc2c(c1)OCO2)N1CCC2(CC1)OCCS2
i	CCCCOc1ccccc1-c1cc2c(=O)n(Cc3c(C)noc3C)ccn2n1
i	COc1ccccc1NC(=O)CSc1nc2ncccc2c(=O)n1Cc1ccccc1Cl
i	CSc1ccccc1C(=O)N1CCC(Oc2ccc(C(F)(F)F)cn2)CC1
i	COc1ccc2nc(/C=C/C(=O)c3cccc(O)c3)ccc2c1
i	Cc1cc(NC(=O)C2CCN(c3ccc(-c4cccs4)nn3)CC2)sn1
i	O=C(CSCc1ccccc1)NCCCS(=O)(=O)N1CCN(c2ccccc2)CC1
i	Cc1ccc(/C=C\S(=O)(=O)N2CCN(c3ccc(-c4ccc(F)cc4)nn3)CC2)cc1
i	O=C(NCCc1ccccc1)C(=O)c1cn(CC(=O)N2CCOCC2)c2ccccc12
i	O=C(c1cc(=O)c2ccccc2o1)N1CCC(Cn2c(C(F)(F)F)nc3ccccc32)CC1
i	CS(=O)(=O)Nc1ccc(-c2cc(-c3ccccc3)cc(C(N)=O)c2N)cc1
i	Cn1c(CN2CCN(C(=O)c3cc(-c4ccc(F)cc4)n[nH]3)CC2)nc2ccccc21
i	O=C(c1cc(-c2ccccc2)on1)N1CC(Oc2nc3c(F)cccc3s2)C1
i	COc1cccc(NC(=O)Cn2c(N3CCOCC3)nc(C)cc2=O)c1
i	Cc1ccc2c(c1)N(C)C(=O)c1cc(NC(=O)c3cc(C4CC4)on3)ccc1O2
i	CCCCC/C=C\C/C=C\CCCCCCCC(=O)OC(CO)CO
i	CCOc1ccccc1N1CCN(C(=O)c2snc3c(=O)n(CC)c(=O)[nH]c23)CC1
i	O=c1cc(-c2cccc(Cl)c2)[nH]c2ccc([N+](=O)[O-])cc12
i	COC(=O)c1ccc(S(=O)(=O)NC2CCCC(OC(=O)Nc3ccccc3)C2)cc1 (centres undefined)
i	O=C(c1cnn(-c2ccccc2)n1)N1CCN(S(=O)(=O)C2CC2)CC1
i	CCc1ccc2nc(N(CCN3CCOCC3)C(=O)C3COc4ccccc4O3)sc2c1 (centres undefined)
i	COc1ccc(NC(=O)Cn2nc3ccc(Sc4ccccc4)nn3c2=O)cc1
i	CCOc1ccc(C(=O)NCc2sc(-c3ccccc3F)nc2C)cc1
i	COc1ccccc1OCC#CCNC(=O)Nc1ccc(C)c(C)c1
i	Cc1nn(-c2ncc(NC(=O)c3ccccc3C(F)(F)F)cn2)c(C)c1C
i	Cc1ccc2nc(C3CN(C(=O)/C=C/c4ccc5c(c4)OCO5)C3)[nH]c2c1
i	Nc1ccc(S(=O)(=O)c2ccc(N)cc2)cc1
i	COc1ccc(C(=O)Nc2nnc(-c3ccc(C)cc3C)o2)cc1OC
i	Cn1nc(C(=O)NCC2(O)CCCC2)ccc1=O
i	CCCCn1c(SCc2nc(-c3ccccc3Br)no2)nc2ccsc2c1=O
i	O=C(NCc1ccsc1)c1cc(-c2ccccc2)on1
i	COc1cc2[nH]c3c(=O)n(CC(=O)NCCC(C)C)cnc3c2cc1OC
i	O=C(N1CCC(Oc2nc3ccccc3s2)CC1)C1(c2cccs2)CCCC1
i	COc1ccc(N2CC(C)Cn3c2nc2c3c(=O)n(C)c(=O)n2C)c(OC)c1 (centres undefined)
i	Cc1ccc(-c2ccc(N3CCCC(C(=O)NCCc4cccs4)C3)nn2)cc1C (centres undefined)
i	Cc1ccccc1C(=O)N1CCN(Cc2nnnn2-c2ccccc2)CC1
i	Cc1nn(-c2ccccc2)c2ncc(C(=O)N3CCN(c4ccc(F)cc4)CC3)c(Cl)c12
i	O=C(Cn1cccc(S(=O)(=O)N2CCCC2)c1=O)Nc1ccc(Cl)cc1F
i	COc1ccc(NC(=O)CSc2nc(N3CCc4ccccc4C3)nc3ccccc23)cc1OC

3 structures already listed, sorted by count of non-hydrogen atoms, highest first:
GIRK2 activ	Compound
i	COc1ccc(N2CC(C)Cn3c2nc2c3c(=O)n(C)c(=O)n2C)c(OC)c1 (centres undefined)
i	Cc1ccccc1C(=O)N1CCN(Cc2nnnn2-c2ccccc2)CC1
i	O=C(NCc1ccsc1)c1cc(-c2ccccc2)on1

(next part)
GIRK2 activ	Compound
i	CCOc1ccccc1-n1c(-c2ccc(F)cc2)cn2c3c(=O)[nH]c(=O)n(C)c3nc12
i	O=C(CSc1nnc(Cn2ccc(=O)[nH]c2=O)o1)Nc1ccc(Cl)cc1Cl
i	CCCNC(=O)Cc1ccc(-n2c(=O)c3ccccc3n(CC(=O)NC3CCCCC3)c2=O)cc1
i	CCn1c(C)c(C(C)=O)c2cc(OCC(O)CN3CCc4ccccc4C3)ccc21 (centres undefined)
i	Cc1ccc(S(=O)(=O)c2cnc(SCC(=O)Nc3ccc4c(c3)OCO4)[nH]c2=O)c(C)c1
i	CC1(C)COC(CC(=O)c2ccc(C(C)(C)C)cc2)=N1
i	Cc1ccc(-n2c(N3CCC(C(=O)NCc4cccc(Cl)c4)CC3)nc3ccsc3c2=O)cc1
i	NC(=O)c1ccc(NC(=O)CCc2csc3nc(-c4ccc(Cl)cc4)cn23)cc1
i	COc1ccc(-c2nnc(NC(=O)C(C)C)o2)c(OC)c1
i	Cc1ccc(Cl)cc1NC(=O)CSc1nccn1-c1cccc(C(=O)NCc2ccco2)c1

Five successive entries already listed, quoted:
GIRK2 activ	Compound
i	CCN(CC)CCN1C(=O)c2oc3ccccc3c(=O)c2C1c1ccc(C)cc1 (centres undefined)
i	CC(=O)c1cccc(S(=O)(=O)N2CCCC(c3nnc(-c4ccccc4F)s3)C2)c1 (centres undefined)
i	Cn1cnnc1SCc1cc(=O)c(OCC(=O)Nc2ccc(Cl)cc2)co1
i	O=C(CCc1csc(NC(=O)Nc2cccc(Cl)c2)n1)NCc1ccccn1
i	CC(=O)Nc1ccc(SCCCC(=O)Nc2ccc(S(N)(=O)=O)cc2)nn1

By substructure, those above containing a CF3 group.
GIRK2 activ	Compound
i	CSc1ccccc1C(=O)N1CCC(Oc2ccc(C(F)(F)F)cn2)CC1
i	O=C(c1cc(=O)c2ccccc2o1)N1CCC(Cn2c(C(F)(F)F)nc3ccccc32)CC1
i	Cc1nn(-c2ncc(NC(=O)c3ccccc3C(F)(F)F)cn2)c(C)c1C

The list continues:
GIRK2 activ	Compound
i	COc1cccc(NC(=O)N(CCc2cccs2)C2CC2)c1OC
i	CCOc1ccc(-n2ccn3c(CC(C)CC(=O)NCc4ccccc4Cl)nnc3c2=O)cc1 (centres undefined)
i	CN1CCN(C(CNS(=O)(=O)c2ccc(Cl)cc2)c2ccsc2)CC1 (centres undefined)
i	O=C(NCc1cccs1)N1CCC(Oc2ccc(C(F)(F)F)cn2)CC1
i	O=C(Nc1nc2c(s1)CN(C(=O)/C=C/c1ccccc1Cl)CC2)c1ccco1
i	CCCc1cc(SCC(=O)Nc2cc(C)ccc2OC)ncn1
i	CCOC(=O)N1CCN(C(=O)CSc2cc(-c3ccccc3)ncn2)CC1
i	CCCN(C)c1nccn2c(=O)n(CC(=O)Nc3cccc(C(F)(F)F)c3)nc12
i	COc1ccccc1N1CCN(CCNC(=O)c2cc3ccccc3oc2=O)CC1
i	CCCCCn1c(=S)[nH]c2cc(C(=O)NCCc3ccc(OC)c(OC)c3)ccc2c1=O
i	O=C(Nc1nc2c(s1)COCC2)c1cc(-c2ccc(F)cc2)n[nH]1
i	CCOC(=O)C1CCN(C(c2ccccn2)c2c(O)cc(C)n(CC)c2=O)CC1 (centres undefined)
i	Cc1nn(C)cc1S(=O)(=O)NC1CC1
i	NS(=O)(=O)c1ccc(N=Nc2c(O)[nH]c3ccc(C(=O)NCCCn4ccnc4)cc23)cc1
i	Cc1ccc(C(=O)Nc2cc(N3CCCC3)ncn2)c(C)c1
i	COc1cccc(Oc2cnc(N)nc2-c2ccc(OCc3ccccc3)cc2O)c1
i	CNC(=O)CSc1cnn(CC(=O)Nc2ccc3c(c2)OCCO3)c(=O)c1Cl
i	COC(=O)c1ccc2c(c1)sc(=NC(=O)c1cc(C)no1)n2C
i	COC(=O)c1ccc(C2c3c(oc4ccc(Cl)cc4c3=O)C(=O)N2CCCO)cc1 (centres undefined)
i	O=C(c1ccccc1)N1CCCc2ccc(NS(=O)(=O)c3ccc(F)cc3)cc21
i	COc1cccc(NC(=O)c2cn(Cc3ccc(NC(=O)c4cccc(F)c4)cc3)cn2)c1
i	Clc1ccc(Cc2nnc3sc(-c4ccc5c(c4)OCCO5)nn23)cc1
i	Cc1nc2ccccc2n1CC1CCN(CC(=O)Nc2cc(C(F)(F)F)ccc2Cl)CC1
i	O=C(N1CCN(c2ccc(-c3ccco3)nn2)CC1)C1(c2ccccc2)CCOCC1
i	COc1cccc(C2=C(c3cn(C)c4c(C)cccc34)C(=O)NC2=O)c1
i	COc1cccc2cc(C(=O)NCC3(O)CCOc4ccccc43)c(=O)oc12 (centres undefined)
i	OC(COc1cccc2ccccc12)CN1CCCCCC1 (centres undefined)
i	O=C(CSc1n[nH]c(=O)c2cc(-c3ccco3)nn12)Nc1cccc(F)c1
i	Cc1cc(C)n(-c2nc(CCNC(=O)c3cc(Cl)ccc3Cl)cs2)n1
i	COc1ccc(CN2COc3ccc4c(=O)c(-c5ccc(Cl)cc5)coc4c3C2)cc1OC
i	Cn1c(=O)c2c(SC3CCCC3)nc(-c3cccs3)nc2n(C)c1=O
i	COc1ccc(S(=O)(=O)N(C)c2ccsc2C(=O)NCCc2cccs2)cc1
i	COc1cc(O)c(C(=O)CCc2ccc(OC)c(OC)c2)c(OC)c1
i	CN1CCCc2cc(CCNC(=O)C(=O)Nc3ccccc3Cl)ccc21
i	Cc1ccc(-n2ncc3c(=O)n(CC(=O)N4CCCc5ccccc54)cnc32)cc1C
i	O=S(=O)(NCC1(CO)CC1)c1ccc(OC(F)(F)F)cc1
i	COc1ccc(NC(=O)Cn2cccc(-c3nc(-c4ccc(F)cc4)no3)c2=O)cc1OC
i	O=C(C1CC1)N1CCN(CCn2cccn2)CC1
i	COc1cccc2cc(C(=O)NCCN3CCN(C(=O)c4ccsc4)CC3)c(=O)oc12
i	O=S(=O)(c1ccc(Cl)cc1)N1CCCC(c2nnc(-c3cccs3)o2)C1 (centres undefined)
i	COc1ccc(NC(=O)CN(C)c2nc3c(C)ccc(C)c3s2)c(OC)c1
i	Cc1c(C(=O)N(C)C)sc2[nH]c(=O)c(C(=O)Nc3ccc(F)c(Cl)c3)c(O)c12
i	CCNC(=O)N1CCc2nc(NC(=O)c3ccsc3)sc2C1
i	Cc1cccc(NC(=O)c2ccc3nn(CC(=O)Nc4ccc(C)cc4C)c(=O)n3c2)c1
i	Cc1ccc(Cl)c2sc(N3CCN(C(=O)Nc4cccs4)CC3)nc12
i	O=C(c1csc(Nc2ncccn2)n1)N1CCc2ccccc2C1
i	COc1ccc(CCC(=O)N2CC(c3nc(-c4cccc(Cl)c4)no3)C2)cc1
i	COc1ccc(S(=O)(=O)Nc2ccc3c(c2)CC(=O)N3)c(OC)c1
i	Cc1cc(C)c(S(=O)(=O)Nc2ccc3c(c2)N(S(C)(=O)=O)CCC3)c(C)c1
i	O=C(NCC(O)C1CCCCC1)C1CCC1 (centres undefined)

(next part)
GIRK2 activ	Compound
i	CCOC(=O)C1CCN(C(=O)CCc2csc(NC(=O)Nc3ccccc3)n2)CC1
i	COc1ccccc1-n1ncc2c(C)nnc(SCC(=O)NCc3ccco3)c21
i	O=C(NNC(=O)c1cccn(Cc2cccc(F)c2)c1=O)Nc1ccc(Cl)c(Cl)c1
i	O=C(CSc1ccncc1)Nc1cc(OCc2ccccc2)ncn1
i	NC(=O)c1nnn(-c2ccc(NC(=O)c3cc4ccccc4oc3=O)cc2)n1
i	O=C(NCc1ccc(F)cc1F)C1CCN(C(=O)NCc2cccs2)CC1
i	Cc1ccc(C)c(N2CCN(C(=O)CCn3cnc4c([nH]c5ccc(C)cc54)c3=O)CC2)c1
i	Cc1cc(C)nc(Nc2nc(C(=O)Nc3ccc4c(c3)OCCO4)cs2)n1
